Screens: PubChem BioAssay, National Center for Advancing Translational Sciences (NCATS)
CtBP-E1A blk – qHTS Assay for Inhibitors of the CtBP/E1A Interaction; 340,000 compounds, 0.49% hits; CtBP / adenovirus E1A interaction (AlphaScreen); activity change, % (no concentration beside the values); AlphaScreen GST-E1A/His-CtBP binding, 1536-well; hits give low values; control for the full effect not named in the record; in the data active means activity change below about -65%; inconclusive means about -30% to -65%; inactive means above about -30%; further: on the % scale 0 is the no-effect control and ±100 the full control effect
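Protein mix (5X: 125 nM each GST-E1A, His-CtBP) was incubated with pinned compound 2 h at 37 deg C in dark, in 50 mM Tris pH 8.0 buffer with 300 mM NaCl. Glutathione donor and nickel acceptor beads followed; AlphaScreen signal read after 1 h.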
D2 potentiator – Beta-Arrestin HTS for Positive Allosteric Modulators of the Human D2 Dopamine Receptor: Potentiators; D(2) dopamine receptor (Homo sapiens), P14416; DiscoveRx D2 beta-arrestin cells, luminescence, 90 min; 100% = 57 uM dopamine signal; potentiation, % (no concentration beside the values); 360,000 compounds, 0.23% hits; AID 624464, 2012; active = potentiation of 50% or more; inconclusive = 30% to 50%; inactive = 30% or less;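 further: compound concentration not given in the record; tested on top of an EC20 dose of dopamine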
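PathHunter D2 cells, attached overnight at 37 deg C, received compound in DMSO plus dopamine at EC20 (50 nM final) for 90 min at 37 deg C. Beta-arrestin recruitment was read as luminescence after 1 h with detection reagent at ambient temperature.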
gsp antag – qHTS for Antagonists of gsp, the Etiologic Mutation Responsible for Fibrous Dysplasia/McCune-Albright Syndrome: qHTS; gsp-mutant cells, cAMP HTRF, 30 min; control for the full effect not named in the record; Potency, µM (series often up to 76.9 µM), inactives show at the top dose activity change, negative = inhibition, hits mostly inhibitors; 340,000 compounds, 0.4% hits; active = falling curve of any shape with a large fitted effect; inconclusive = falling curve, mostly with a smaller effect; inactive = flat or rising curve; cell line not stated here;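 further: intracellular cAMP measured with PDE inhibitor Ro 20-1724 present during compound exposure; potency means the concentration at half of the fitted maximal effect; on the % scale 0 is the no-effect control and ±100 the full control effect; nearly all actives have a fitted effect of over 65% in size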
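G418-selected cells were plated in DMEM/10% FBS for 16-24 h at 37C, then treated with compounds plus the PDE inhibitor […] (300 uM solution added) for 30 min at 37C. Intracellular cAMP was measured by HTRF after 30 min lysis at room temperature.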
Six1-Eya2 inh – qHTS Assay for Inhibitors of the Six1/Eya2 Interaction; Homeobox protein SIX1 (Homo sapiens) + Protein phosphatase EYA2 (Homo sapiens), …; AlphaScreen GST-Six1/His-Eya2 binding, biochemical; hits give low values; control for the full effect not named in the record; activity change, % (test concentration not listed); 360,000 compounds, 0.56% hits; in the data active = activity change below about -65%; inconclusive = about -30% to -65%; inactive = above about -30%; further: on the % scale 0 is the no-effect control and ±100 the full control effect
Target sequence (O00167 whole entry, looked up): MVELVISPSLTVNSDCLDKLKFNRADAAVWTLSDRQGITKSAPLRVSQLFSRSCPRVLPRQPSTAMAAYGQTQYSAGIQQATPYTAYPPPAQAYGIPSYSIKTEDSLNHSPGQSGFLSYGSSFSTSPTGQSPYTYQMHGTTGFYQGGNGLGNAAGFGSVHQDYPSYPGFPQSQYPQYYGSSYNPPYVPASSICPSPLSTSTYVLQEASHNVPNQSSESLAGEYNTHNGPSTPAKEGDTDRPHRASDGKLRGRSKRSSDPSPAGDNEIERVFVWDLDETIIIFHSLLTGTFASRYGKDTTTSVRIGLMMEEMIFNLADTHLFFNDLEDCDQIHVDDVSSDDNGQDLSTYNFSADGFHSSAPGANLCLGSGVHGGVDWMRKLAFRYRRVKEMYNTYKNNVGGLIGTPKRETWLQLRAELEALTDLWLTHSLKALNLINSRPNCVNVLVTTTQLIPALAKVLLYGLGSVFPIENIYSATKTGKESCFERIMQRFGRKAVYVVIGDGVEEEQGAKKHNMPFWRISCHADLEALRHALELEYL
Target sequence (Q15475 whole entry, looked up): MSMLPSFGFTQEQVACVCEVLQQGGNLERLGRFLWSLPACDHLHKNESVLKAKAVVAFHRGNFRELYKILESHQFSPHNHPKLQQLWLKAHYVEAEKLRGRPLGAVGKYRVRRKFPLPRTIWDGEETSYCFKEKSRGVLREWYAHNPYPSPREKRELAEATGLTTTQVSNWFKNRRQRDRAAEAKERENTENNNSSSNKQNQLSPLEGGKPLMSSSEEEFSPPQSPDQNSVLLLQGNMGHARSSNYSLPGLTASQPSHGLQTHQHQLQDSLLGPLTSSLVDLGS
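Compounds are tested against tagged Six1 and Eya2 proteins bridged by glutathione donor and nickel acceptor beads; after a one-hour incubation at 37 °C without light, AlphaScreen emission is recorded.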
D2 agonist – Beta-Arrestin HTS for Positive Allosteric Modulators of the Human D2 Dopamine Receptor: Agonists. D(2) dopamine receptor (Homo sapiens), P14416. DiscoveRx PathHunter D2 beta-arrestin, luminescence, 90 min; 100% = 57 uM dopamine signal. activation, % (no concentration beside the values). 360,000 compounds, 0.084% hits. AID 624465, 2012; in the data active = activation above about 40%; inconclusive = about 15% to 40%; inactive = below about 15%; further: compound concentration not given in the record; the text of the record calls up to 30% inactive
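DiscoveRx PathHunter D2 beta-arrestin cells (2,100/well) attached overnight, then compound-stimulated 90 min at 37 C in HBSS/10 mM HEPES/0.1% Tween-20 buffer; beta-galactosidase complementation read by luminescence after 1 h at ambient temperature. Dopamine 57 uM final (EC100) as control.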
gsp ag – qHTS for Agonist of gsp, the Etiologic Mutation Responsible for Fibrous Dysplasia/McCune-Albright Syndrome: qHTS. Potency, µM (top dose mostly 76.9 µM), without a hit: at the top dose activation (cAMP increase), hits mostly activators. 340,000 compounds, 0.13% hits. gsp mutant cells, cAMP HTRF, 30 min; control for the full effect not named in the record. AID 624287, 2012; active = well fitted activation curve with a large enough effect; inconclusive = small, poorly fitted or top-dose-only effect, or another doubt; inactive = no such curve, though single readings can be large or run the other way; cell line not stated here;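 further: phosphodiesterase inhibitor Ro 20-1724 added with compounds to block cAMP breakdown; potency means the concentration at half of the fitted maximal effect; nearly all actives have a fitted effect of over 60% in size; about a fifth of the inactives were tested at one dose only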
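Cells stably selected in G418 were plated at 2000/well, grown 16-24 hr, then given compounds in DMSO with the PDE inhibitor […] (300 uM solution added) for 30 min at 37C; cAMP was read by HTRF.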
The depositor's hits bear a star; [ ] = dose if it differs, or a comment.

`COc1ccc(-c2noc(CNS(=O)(=O)c3ccc(NC(C)=O)cc3)n2)cc1` gave CtBP-E1A blk -15, D2 potentiator -7, gsp antag 0%, Six1-Eya2 inh 5, D2 agonist 5.7 and gsp ag 8%.
`CSc1nc(Cl)c(Cc2ccc(OCC(C)C)cc2)c(N2CCOCC2)n1` gave CtBP-E1A blk 19, D2 potentiator -4, gsp antag -4%, Six1-Eya2 inh 16, D2 agonist -2.7 and gsp ag inconclusive.
For CCOC(=O)c1cccc(NC(=O)C2CCCO2)c1 (stereo not drawn) the results were CtBP-E1A blk 1, D2 potentiator 4, gsp antag 7%, Six1-Eya2 inh 8, D2 agonist -1.8 and gsp ag -3%.
For O=S(=O)(c1ccccc1)N(Cc1cccc(F)c1)c1ccccc1 the results were CtBP-E1A blk 0, D2 potentiator -7, gsp antag -34%, Six1-Eya2 inh 14, D2 agonist -6.6 and gsp ag 5%[15.4 µM].
CC1(C)SC2c3ccccc3C(=O)N2[C@@H]1C(=O)O (stereo partly drawn) was read as CtBP-E1A blk 5, D2 potentiator -9, gsp antag 13%, Six1-Eya2 inh 1, D2 agonist -2.5 and gsp ag 26%.
Screening CCn1c(=S)sc2c(=O)n(CC(=O)Nc3cc(OC)ccc3OC)c(C)nc21 returned CtBP-E1A blk 4, D2 potentiator -10, gsp antag -4%, Six1-Eya2 inh 0, D2 agonist -2.1 and gsp ag 2%.
For COC(=O)CCC(=O)N1CCC(CCC(=O)NCc2ccc(F)cc2)CC1 the results were CtBP-E1A blk 7, D2 potentiator -2, gsp antag 8%, Six1-Eya2 inh 3, D2 agonist -2.1 and gsp ag 44%.
CS(=O)(=O)Cc1ccc(C(=O)N2CCCC2c2cccs2)cc1 (stereo not drawn) was read as CtBP-E1A blk -3, D2 potentiator -1, gsp antag 5%, Six1-Eya2 inh -3, D2 agonist 0.1 and gsp ag -20%[15.4 µM].
CC1CCCCN1C(=O)Nc1cccc(Cl)c1 (stereo not drawn) was read as CtBP-E1A blk 1, D2 potentiator -14, gsp antag 13%, Six1-Eya2 inh 7, D2 agonist 2.2 and gsp ag 30%.
For CN1N=C(c2ccc(Cl)cc2)CC(c2ccc(Cl)cc2)C1=O (stereo not drawn) the results were CtBP-E1A blk -6, D2 potentiator 0, gsp antag -1%, Six1-Eya2 inh 6, D2 agonist -3.3 and gsp ag 4%.
`CC(=O)Oc1ccc(-c2cccc(C(=O)OCC(=O)Nc3ccccc3Oc3ccccc3)c2)cc1` gave CtBP-E1A blk -25, D2 potentiator -7, gsp antag -6%, Six1-Eya2 inh 0, D2 agonist -2.3 and gsp ag -5%[15.4 µM].
Screening O=C(NNc1c2ccccc2nc2ccccc12)c1ccccc1Cl returned CtBP-E1A blk -14, D2 potentiator -20, gsp antag -19%, Six1-Eya2 inh -25, D2 agonist -9.4 and gsp ag -35%[inhibitor].
Screening NNC(=O)c1cc2ccccc2cc1NS(=O)(=O)c1ccccc1 returned CtBP-E1A blk 4, D2 potentiator 0, gsp antag -19%, Six1-Eya2 inh -6, D2 agonist 4.7 and gsp ag 2%[15.4 µM].
`Cc1nn(-c2ccccc2)c(Cl)c1/C=C1\SC(=S)N(C)C1=O` gave CtBP-E1A blk -7, D2 potentiator -4, gsp antag 9%, Six1-Eya2 inh 0, D2 agonist -1.1 and gsp ag -17%.
For NC(=O)c1ccc(NC(=O)C2CCCC2)cc1 the results were CtBP-E1A blk 2, D2 potentiator -1, gsp antag 2%, Six1-Eya2 inh -3, D2 agonist -7.7 and gsp ag -2%[15.4 µM].
`O=C1C=C(c2ccc(O)cc2)C[C@@H](c2ccc3c(c2)OCO3)C1` gave CtBP-E1A blk inconclusive, D2 potentiator -4, gsp antag -2%, Six1-Eya2 inh -17 and D2 agonist 0.8.
`N#CC1=C(N)Oc2n[nH]c(-c3ccncc3)c2C1c1ccsc1` (stereo not drawn) gave CtBP-E1A blk -29, D2 potentiator -4, gsp antag 6%, Six1-Eya2 inh 0, D2 agonist -2.7 and gsp ag -39%[inhibitor].
CCOc1ccc(C(=O)C(C)OC(=O)C2CCN(c3ccc(C(F)(F)F)cn3)CC2)cc1 (stereo not drawn) was read as CtBP-E1A blk 22, D2 potentiator 10, gsp antag -5%, Six1-Eya2 inh 15, D2 agonist 0.2 and gsp ag -41%.
For O=C(CSc1nn(-c2ccccc2)c(=S)s1)NC1CCS(=O)(=O)C1 (stereo not drawn) the results were CtBP-E1A blk 7, D2 potentiator -8, gsp antag 8%, Six1-Eya2 inh 3, D2 agonist 2.3 and gsp ag 8%.
O=[N+]([O-])c1ccc(NC(=S)N2CCc3ccccc32)cc1 was read as CtBP-E1A blk -10, D2 potentiator -10, gsp antag -21%, Six1-Eya2 inh -10, D2 agonist -6.2 and gsp ag 0%.
CCN(CC(=O)N1CCOCC1)S(=O)(=O)c1cc(Cl)ccc1Cl was read as CtBP-E1A blk 11, D2 potentiator -4, gsp antag 2%, Six1-Eya2 inh 8, D2 agonist -5.2 and gsp ag -21%.
CCC(=O)Nc1ccc(N2CCN(S(C)(=O)=O)CC2)cc1 was read as CtBP-E1A blk 9, D2 potentiator -3, gsp antag 3%, Six1-Eya2 inh 1, D2 agonist 4.6 and gsp ag 23%.
Screening CCC[C@H]1CN(c2ccccc2)C(=O)[C@@H]1CC(=O)NC returned CtBP-E1A blk -17, Six1-Eya2 inh 0, D2 agonist 1.4 and gsp ag -20%.
COc1ccc(C(=O)c2cnc[nH]2)cc1OC was read as CtBP-E1A blk -25, D2 potentiator -13, gsp antag 8%, Six1-Eya2 inh 0, D2 agonist -6.6 and gsp ag 2%.
CC(=O)N1CCN(C(=O)Nc2cccc(C(F)(F)F)c2)CC1 was read as CtBP-E1A blk 0, D2 potentiator -3, gsp antag 6%, Six1-Eya2 inh -6, D2 agonist 8.8 and gsp ag -32%[inhibitor].
Screening O=C(COC(=O)c1c2c(nc3ccccc13)/C(=C/c1cccc([N+](=O)[O-])c1)CCC2)NC1CCS(=O)(=O)C1 (stereo not drawn) returned CtBP-E1A blk -28, D2 potentiator -17, gsp antag -13%, Six1-Eya2 inh -13, D2 agonist 1.3 and gsp ag -38%.
COc1cnn(-c2ccccc2)c(=O)c1SCc1ccc(Cl)cc1Cl was read as CtBP-E1A blk 11, D2 potentiator 11, gsp antag inconclusive, Six1-Eya2 inh 11, D2 agonist -0.9 and gsp ag 0%.
Cc1ccc(C)c(NC(=O)CSc2nc3ccc(N4C(=O)c5ccccc5C4=O)cc3s2)c1 was read as CtBP-E1A blk -3, D2 potentiator -29, gsp antag -6%, Six1-Eya2 inh 1, D2 agonist -2.9 and gsp ag -2%.
C[C@H]1CN([C@@H](C)CO)C(=O)CCCn2nncc2CO[C@@H]1CN(C)Cc1ccc2c(c1)OCCO2 was read as CtBP-E1A blk 5, D2 potentiator -1, Six1-Eya2 inh 2, D2 agonist -9.6 and gsp ag inconclusive.
Screening CC(C)N1CC(O)=C(c2nc3ccccc3[nH]2)C1=N returned CtBP-E1A blk 0, D2 potentiator -4, gsp antag -14%, Six1-Eya2 inh -9, D2 agonist -0.5 and gsp ag -44%[inhibitor].
Screening O=C1C2C3CCC(C3)C2C(=O)N1Cc1ccco1 (stereo not drawn) returned CtBP-E1A blk 10, D2 potentiator 13, gsp antag 0%, Six1-Eya2 inh 5, D2 agonist 4.2 and gsp ag -36%[inhibitor].
Cc1noc(C)c1COC(=O)Cc1ccc(Cl)c(Cl)c1 was read as CtBP-E1A blk 17, D2 potentiator -7, gsp antag 5%, Six1-Eya2 inh 21, D2 agonist -5.4 and gsp ag -1%[15.4 µM].
`Cc1ccc(-n2nnc(-c3nccn3C)n2)cc1` gave CtBP-E1A blk 3, D2 potentiator -2, gsp antag 15%, Six1-Eya2 inh 3 and D2 agonist 0.7.
O=C(CSc1ccc(-c2ccc(F)cc2)nn1)NCc1ccco1 was read as CtBP-E1A blk 0, D2 potentiator 0, gsp antag 12%, Six1-Eya2 inh -2, D2 agonist 0.7 and gsp ag -14%.
For CC(C)CCSc1nc(N)c(C#N)cc1C#N the results were CtBP-E1A blk inconclusive, D2 potentiator 0, gsp antag 15%, Six1-Eya2 inh inconclusive, D2 agonist -6.2 and gsp ag inconclusive.
Screening O=C(Cc1coc2ccc3ccccc3c12)NCc1ccccc1 returned CtBP-E1A blk -2, D2 potentiator -13, gsp antag -12%, Six1-Eya2 inh -2, D2 agonist -4.8 and gsp ag -26%.
COC(=O)CC(NS(=O)(=O)c1cccs1)c1cccc2ccccc12 (stereo not drawn) was read as CtBP-E1A blk -1, D2 potentiator -3, gsp antag -13%, Six1-Eya2 inh 3, D2 agonist -2.1 and gsp ag -2%.
`CN(C)c1ccc(C=NCC2COc3ccccc3O2)cc1` (stereo not drawn) gave CtBP-E1A blk 1, D2 potentiator -11, gsp antag 0%, Six1-Eya2 inh -4, D2 agonist 5.6 and gsp ag -12%.
O=C(Nc1cccnc1)c1ccccc1Oc1ccccc1 was read as CtBP-E1A blk 2, D2 potentiator -6, gsp antag 1%, Six1-Eya2 inh 6, D2 agonist -1.4 and gsp ag -6%.
Screening CCCc1[nH]n(-c2ccc(F)cc2)c(=O)c1C=Nc1cccc(F)c1 returned CtBP-E1A blk -2, D2 potentiator -1, gsp antag 13%, Six1-Eya2 inh 11, D2 agonist 0.1 and gsp ag -10%.
`O=C(COC(=O)c1cnc(Cl)c(Cl)c1)NCc1cccs1` gave CtBP-E1A blk -26, D2 potentiator -5, gsp antag 2%, Six1-Eya2 inh 0, D2 agonist 0.6 and gsp ag 2%[15.4 µM].
For O=C(CSc1ncnc2ccccc12)Nc1cccc(S(=O)(=O)N2CCOCC2)c1 the results were CtBP-E1A blk -18, D2 potentiator -12, gsp antag 25%, Six1-Eya2 inh -2, D2 agonist -3.4 and gsp ag 99%[15.4 µM].
`CCOC(=O)c1cc2c(c(CCO)n1)[C@H](CCO)N(S(=O)C(C)(C)C)C2` (stereo partly drawn) gave CtBP-E1A blk 11, D2 potentiator 3, gsp antag 5%, Six1-Eya2 inh 8 and D2 agonist 2.6.

Pulled by structure from above (two):
Screening CC(C)N1CC(O)=C(c2nc3ccccc3[nH]2)C1=N returned CtBP-E1A blk 0, D2 potentiator -4, gsp antag -14%, Six1-Eya2 inh -9, D2 agonist -0.5 and gsp ag -44%[inhibitor].
`CCOC(=O)c1cc2c(c(CCO)n1)[C@H](CCO)N(S(=O)C(C)(C)C)C2` (stereo partly drawn) gave CtBP-E1A blk 11, D2 potentiator 3, gsp antag 5%, Six1-Eya2 inh 8 and D2 agonist 2.6.
